# High-throughput results deposited in PubChem BioAssay by Broad Institute.
# Vaccinia stage: blocks a specific stage of Vaccinia orthopoxvirus infection | Vaccinia-infected cells, mCherry/Venus stage reporter fluorescence; hits give low values; some inactives read as strong as hits | activity change (mCherry), % (concentration not given with the values) | 89,000 tested, 0.01% active;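 active = mCherry past -33% and 40 or more points under the early reporter, replicates agreeing; inconclusive = past -33% without that gap or agreement; tested in A549 cells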;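 also: scaled between vehicle wells and reference inhibitor wells; 23 nL library stock went into each well; one replicate is shown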
# Vaccinia stage Venus: further read-out of Vaccinia stage, marked with its call; activity change (Venus), %; measured here: Venus reporter, other viral stage;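 negative = less Venus signal; first of two replicates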
# An asterisk follows results filed as active; ? = inconclusive; nt = not tested or not shown. A portion of the library. The share of hits here may be higher or lower than overall.
entry	Molecule	Vaccinia stage	Vaccinia stage Venus
1	C[C@@H]1CN([C@@H](C)CO)S(=O)(=O)c2ccc(-c3ccc(C(=O)N(C)C)cc3)cc2O[C@@H]1CN(C)C(=O)Nc1ccccc1F	0	-6
2	C/C=C/c1ccc(C2[C@H]3CNC[C@@H]2N3C(=O)Nc2ccc3c(c2)OCO3)cc1 (stereo partly drawn)	-3	3
3	Cc1ccc(S(=O)(=O)N(C)C[C@H]2OCCCC[C@@H](C)Oc3ccc(NC(=O)NC(C)C)cc3C(=O)N([C@@H](C)CO)C[C@H]2C)cc1	-21	-20
4	CCCN(C)C[C@H]1Oc2cc(-c3ccccc3OC)ccc2S(=O)(=O)N([C@H](C)CO)C[C@H]1C	-18	-12
5	CN(C)CCCNC(=O)C[C@H]1CC[C@@H]2[C@H](COC[C@@H](O)CN2Cc2cccc(C(F)(F)F)c2)O1	-5	-10
6	CCS(=O)(=O)Nc1ccc2c(c1)C(=O)N(C)[C@H]1CC[C@@H](CC(=O)NC)O[C@H]1CO2	-1	-1
7	COc1ccccc1CNC(=O)C[C@@H]1C=C[C@H](NC(=O)CC2CC2)[C@H](CO)O1	-6	4
8	C[C@@H]1CN([C@H](C)CO)C(=O)c2cc(/C=C/c3ccccc3)cnc2O[C@@H]1CN(C)Cc1ccc2c(c1)OCO2	-27	-22
9	C/C=C/c1ccc2c(c1)O[C@@H](CN(C)C(C)=O)[C@H](C)CN([C@@H](C)CO)S2(=O)=O	21	16
10	CCCN(C)C[C@@H]1Oc2cc(-c3ccccc3F)ccc2S(=O)(=O)N([C@@H](C)CO)C[C@@H]1C	-23	-26
11	C[C@H]1CN([C@@H](C)CO)S(=O)(=O)c2ccc(-c3ccncc3)cc2O[C@@H]1CN(C)Cc1ccccc1	?	nt
12	CCCC(=O)N1C[C@H]2[C@@H](c3ccccc31)[C@H](CO)N2C(=O)Nc1ccccc1	2	0
13	C[C@H](CO)N1C[C@H](C)[C@@H](CN(C)C(=O)c2ccc(F)cc2)Oc2ncc(-c3ccncc3)cc2C1=O	12	7
14	C[C@@H]1CCCCO[C@H](CN(C)C(=O)NC2CCCCC2)[C@H](C)CN([C@@H](C)CO)C(=O)c2cc(NS(=O)(=O)c3ccccc3)ccc2O1	16	8
15	C/C=C/c1ccc([C@H]2[C@@H](CO)N(C(=O)NC(C)C)[C@@H]2CNC(C)=O)cc1	-7	3
16	CCC(=O)N1C[C@@H](C)[C@@H](OC)CN(C)C(=O)c2cc(NC(=O)Nc3ccccc3)ccc2OC[C@@H]1C	4	9
17	Cc1ccc(S(=O)(=O)Nc2ccc3c(c2)C(=O)N(C)[C@H]2CC[C@H](CC(=O)NCCc4ccncc4)O[C@H]2CO3)cc1	5	15
18	CC(=O)N1[C@@H]2Cn3c(ccc(C4=CCCCC4)c3=O)[C@H]1[C@@H](C(=O)N[C@@H](C)c1ccccc1)[C@@H]2CO	-4	-1
19	Cc1noc(C)c1NC(=O)Nc1ccc2c(c1)C(=O)N(C)[C@H]1CC[C@@H](CC(=O)NCc3ccc(Cl)cc3)O[C@@H]1CO2	0	0
20	O=C(Nc1ccccc1)Nc1ccc2c(c1)[C@@H]1C[C@H](CC(=O)N3CCCCC3)O[C@@H](CO)[C@@H]1O2	9	9
21	CN1C(=O)c2cc(NC(=O)c3ccc(F)c(F)c3)ccc2OC[C@@H]2O[C@@H](CC(=O)N[C@@H]3CCN(Cc4ccccc4)C3)CC[C@@H]21	?	nt
22	C=CCOC(=O)C1=C[C@@H](c2ccc3c(c2)OCO3)C[C@@H](OCc2ccc(CO)cc2)O1	14	6
23	O=C(C[C@@H]1C[C@@H]2c3cc(NS(=O)(=O)c4ccc(F)cc4)ccc3O[C@@H]2[C@@H](CO)O1)NCc1ccc(-c2ccccc2)cc1	?	nt
24	C[C@@H]1CCCCO[C@@H](CN(C)Cc2ccccc2)[C@H](C)CN([C@H](C)CO)C(=O)c2cc(NC(=O)Nc3ccccc3)ccc2O1	-26	-25
25	COc1ccc(NC(=O)Nc2ccc3c(c2)C(=O)N([C@H](C)CO)C[C@@H](C)[C@@H](CN(C)Cc2ccc4c(c2)OCO4)OCCCC[C@H](C)O3)cc1	?	nt
26	C[C@H](CO)N1C[C@H](C)[C@@H](CN(C)C(=O)CC2CC2)Oc2ncc(C#CC(C)(C)O)cc2C1=O	9	-2
27	O=S(=O)(c1ccc(F)cc1)N1CCCCN2[C@H](CO)[C@@H](c3ccc(-c4ccccc4F)cc3)[C@H]2C1	?	nt
28	C[C@H](CO)N1C[C@H](C)[C@@H](CN(C)S(=O)(=O)c2ccc(Cl)cc2)Oc2ccc(NC(=O)CCCN(C)C)cc2CC1=O	-5	-1
29	C[C@H]1CN([C@@H](C)CO)C(=O)c2cccc(NC(=O)c3nc4ccccc4s3)c2O[C@@H]1CN(C)Cc1ccccc1	?	nt
30	CO[C@H](C(=O)N(C)C[C@H]1OCc2ccccc2-c2ccccc2C(=O)N([C@H](C)CO)C[C@H]1C)c1ccccc1	20	8
31	C[C@@H]1CN([C@@H](C)CO)C(=O)c2cc(-c3ccccc3)cnc2O[C@@H]1CN(C)C(=O)C1CCCCC1	-10	-15
32	C[C@H](CO)N1C[C@H](C)[C@H](CN(C)C(=O)CN(C)C)Oc2ncc(C3=CCCC3)cc2C1=O	25	12
33	N#C[C@H]1[C@@H](c2ccccc2)[C@H](CO)N1C(=O)c1cccnc1	11	15
34	COc1ccc(C#Cc2ccc([C@@H]3[C@@H](CO)N4CCCCN(C(=O)Cc5cccnc5)C[C@@H]34)cc2)cc1	?	nt
35	C[C@@H]1CN([C@@H](C)CO)C(=O)Cc2cc(N(C)C)ccc2O[C@H]1CN(C)C(=O)Nc1ccc2c(c1)OCO2	3	0
36	O=C(Cc1ccccc1)N1CC(=O)N2[C@H](C1)[C@@H](c1ccc(C3=CCCC3)cc1)[C@@H]2CO	11	2
37	COc1ccc(NC(=O)N(C)C[C@H]2Oc3ncc(C#CC(C)C)cc3C(=O)N([C@H](C)CO)C[C@H]2C)cc1	-3	4
38	O=C(c1ccncc1)N1CC(=O)N2[C@@H](CO)[C@@H](c3ccc(-c4ccccc4F)cc3)[C@@H]2C1	11	-3
39	C[C@@H]1CN([C@@H](C)CO)S(=O)(=O)c2ccc(C#CC3CC3)cc2O[C@H]1CN(C)C(=O)c1cccc(F)c1	?	nt
40	O=C(C[C@@H]1CC[C@H]2NC[C@@H](O)COC[C@@H]2O1)NCCN1CCCCC1	5	24

# Compound profiles (already shown). Order of values: Vaccinia stage, Vaccinia stage Venus
# `COc1ccc(NC(=O)N(C)C[C@H]2Oc3ncc(C#CC(C)C)cc3C(=O)N([C@H](C)CO)C[C@H]2C)cc1` across the screens: -3, 4
# `O=C(c1ccncc1)N1CC(=O)N2[C@@H](CO)[C@@H](c3ccc(-c4ccccc4F)cc3)[C@@H]2C1` across the screens: 11, -3
# `C[C@@H]1CN([C@@H](C)CO)C(=O)Cc2cc(N(C)C)ccc2O[C@H]1CN(C)C(=O)Nc1ccc2c(c1)OCO2` across the screens: 3, 0

# Later entries.
entry	Molecule	Vaccinia stage	Vaccinia stage Venus
41	CN1C(=O)c2cc(NC(=O)c3cccs3)ccc2OC[C@H]2O[C@H](CC(=O)N3CCCCC3)CC[C@@H]21	-6	5
42	O=C(N[C@H]1C=C[C@@H](CC(=O)N2CCOCC2)O[C@H]1CO)c1cccc(F)c1	12	13
43	C[C@@H]1CCCCO[C@@H](CN(C)Cc2ccncc2)[C@@H](C)CN([C@@H](C)CO)C(=O)c2cc(NC(=O)Nc3ccc4c(c3)OCO4)ccc2O1	7	0
44	O=C(Nc1ccc2c(c1)[C@H]1C[C@H](CC(=O)N3CCOCC3)O[C@H](CO)[C@H]1O2)C1CCOCC1	5	0
45	COc1ccc(-c2ccc3c(c2)O[C@H](CN(C)CC2CCOCC2)[C@H](C)CN([C@@H](C)CO)S3(=O)=O)cc1	-31	-34
46	C[C@H](CO)N1C[C@H](C)[C@H](CN(C)S(=O)(=O)c2cn(C)cn2)Oc2ccc(NS(=O)(=O)c3ccccc3)cc2CC1=O	10	6
47	C[C@@H]1CN([C@@H](C)CO)C(=O)c2cc(NS(=O)(=O)c3ccccc3)ccc2O[C@@H](C)CCCCO[C@H]1CN(C)S(=O)(=O)c1cccs1	-18	-11
48	O=C(N[C@H]1CC[C@@H](CCNS(=O)(=O)c2ccc(Cl)cc2)O[C@@H]1CO)c1cccnc1	-13	-15
49	C[C@H]1CN([C@@H](C)CO)C(=O)c2cc(-c3cccc(F)c3)cnc2O[C@H]1CN(C)C(=O)Nc1ccccc1F	-5	-5
50	C[C@@H]1CN([C@H](C)CO)C(=O)Cc2cc(NC(=O)Cn3cnnn3)ccc2O[C@H]1CN(C)Cc1ccc(Oc2ccccc2)cc1	7	7
51	CC(C)NC(=O)N(C)C[C@H]1OCCCC[C@H](C)Oc2ccc(NS(=O)(=O)c3ccc(F)cc3)cc2C(=O)N([C@@H](C)CO)C[C@@H]1C	18	14
52	C[C@H](CO)N1C[C@H](C)[C@H](CN(C)CC2CCCCC2)Oc2ccc(NC(=O)Nc3ccc4c(c3)OCO4)cc2C1=O	-29	-17
53	C[C@@H](O)C#Cc1ccc2c(c1)O[C@H](CN(C)C(=O)C1CCC1)[C@@H](C)CN([C@@H](C)CO)S2(=O)=O	-8	-2
54	N#C[C@@H]1[C@H](c2ccccc2)[C@H](CO)N1C(=O)c1cc(Cl)cc(Cl)c1	-1	1
55	COCC(=O)N1C[C@@H]2[C@H](c3ccccc31)[C@@H](CO)N2C(=O)Nc1ccccc1Cl	5	10
56	COc1ccccc1-c1ccc2c(c1)[C@@H]1[C@@H](CCN1S(=O)(=O)c1ccccc1)[C@H](CO)N2	1	2
57	OC[C@@H]1[C@H](c2ccc(-c3ccc(F)cc3)cc2)[C@@H]2CN(CCC(F)(F)F)CCCCN12	?	nt
58	CO[C@@H]1CN(C)C(=O)c2cc(NC(=O)C3CCCC3)ccc2OC[C@H](C)N(CC2CC2)C[C@@H]1C	-3	9
59	C[C@@H]1CN([C@H](C)CO)C(=O)c2cccc(NC(=O)Nc3ccc4c(c3)OCO4)c2O[C@H]1CN(C)C(=O)NC1CCCCC1	-8	-10
60	CCCC#Cc1cnc2c(c1)C(=O)N([C@@H](C)CO)C[C@@H](C)[C@@H](CN(C)Cc1ccccc1)O2	-22	-15
61	C[C@@H]1CN([C@H](C)CO)C(=O)Cc2cc(NC(=O)NC3CCCCC3)ccc2O[C@@H]1CN(C)Cc1ccncc1	8	1
62	CCC(=O)N1[C@H](CO)[C@@H](c2ccccc2)[C@H]1CN(C)C(=O)CN1CCOCC1	7	13
63	COCC(=O)N1[C@H](CO)[C@H](c2ccccc2-c2cccc(OC)c2)[C@@H]1C#N	-14	-10
64	CC1=C2[C@@H](c3ccccc3)OB(O)C[C@@H]2[C@@H]2C(=O)N(Cc3ccccc3)C(=O)[C@@H]2C1	-5	1

# Values in list order from above.
# Vaccinia stage Venus, entries 57–64 → nt, 9, -10, -15, 1, 13, -10, 1
# Vaccinia stage, entries 57–64 → ?, -3, -8, -22, 8, 7, -14, -5

# The results go on:
entry	Molecule	Vaccinia stage	Vaccinia stage Venus
65	C[C@@H]1CN([C@@H](C)CO)C(=O)c2cccc(NS(=O)(=O)c3ccc(Cl)cc3)c2O[C@@H]1CN(C)C(=O)NC1CCCCC1	-27	-28
66	COCC(=O)Nc1ccc2c(c1)[C@@H]1C[C@@H](CC(=O)NCc3ccc(-c4ccccc4)cc3)O[C@H](CO)[C@@H]1O2	-5	-2
67	Cc1ccc(S(=O)(=O)N[C@H]2C=C[C@H](CC(=O)N3CCC(Cc4ccccc4)CC3)O[C@@H]2CO)cc1	?	nt
68	Cc1ccc(S(=O)(=O)Nc2ccc3c(c2)C(=O)N([C@H](C)CO)C[C@H](C)[C@@H](CN(C)C(=O)CCC(F)(F)F)OCCCC[C@@H](C)O3)cc1	29	30
69	CC(=O)N(C)C[C@@H]1Oc2cc(C#CCC3CCCC3)ccc2S(=O)(=O)N([C@@H](C)CO)C[C@@H]1C	?	nt
70	CCCN(C)C[C@@H]1Oc2ncc(-c3cccnc3)cc2C(=O)N([C@H](C)CO)C[C@@H]1C	14	4
71	C[C@H](NC(=O)N(C)C[C@H]1OCc2ccccc2-c2c(n(C)c3ccccc23)C(=O)N([C@@H](C)CO)C[C@@H]1C)c1ccccc1	?	nt
72	C[C@@H]1CN([C@H](C)CO)C(=O)c2cc(NC(=O)c3ccncc3)ccc2O[C@@H](C)CCCCO[C@H]1CN(C)Cc1ccc(Cl)c(Cl)c1	?	nt

# Exported as labelled records: entries from further up.
72	C[C@@H]1CN([C@H](C)CO)C(=O)c2cc(NC(=O)c3ccncc3)ccc2O[C@@H](C)CCCCO[C@H]1CN(C)Cc1ccc(Cl)c(Cl)c1
  Vaccinia stage: ?; Vaccinia stage Venus: nt

69	CC(=O)N(C)C[C@@H]1Oc2cc(C#CCC3CCCC3)ccc2S(=O)(=O)N([C@@H](C)CO)C[C@@H]1C
  Vaccinia stage: ?; Vaccinia stage Venus: nt

# Later entries:
entry	Molecule	Vaccinia stage	Vaccinia stage Venus
73	COCC(=O)Nc1ccc2c(c1)[C@@H]1C[C@@H](CC(=O)NCCc3ccccc3)O[C@H](CO)[C@@H]1O2	8	-1
74	COc1ccc(NC(=O)Nc2ccc3c(c2)C(=O)N([C@@H](C)CO)C[C@@H](C)[C@@H](CN(C)C(=O)c2ccccc2)OCCCC[C@@H](C)O3)cc1	-4	2
75	COc1ccc(S(=O)(=O)Nc2ccc3c(c2)C(=O)N([C@@H](C)CO)C[C@@H](C)[C@@H](CN(C)C(=O)Nc2ccccc2)O3)cc1	3	5
76	O=C(C[C@@H]1CC[C@H]2[C@@H](COC[C@@H](O)CN2Cc2cccc(C(F)(F)F)c2)O1)NCCc1ccncc1	4	3
77	O=C(NCC[C@@H]1CC[C@H](NS(=O)(=O)c2cccc(F)c2)[C@@H](CO)O1)C1CCC1	-6	0
78	COc1ccc(NC(=O)N(C)C[C@H]2OCCCC[C@@H](C)Oc3ccc(NS(=O)(=O)c4cccs4)cc3C(=O)N([C@@H](C)CO)C[C@@H]2C)cc1	-16	-11
79	COc1cccc(-c2cnc3c(c2)C(=O)N([C@H](C)CO)C[C@@H](C)[C@@H](CN(C)Cc2ccccc2)O3)c1	-16	-6
